UCH37 DUB inh = inhibitors of human UCH37 deubiquitinase, primary screen, biochemical, Ub-AMC cleavage, fluorescence. Ubiquitin carboxyl-terminal hydrolase isozyme L5 (Homo sapiens), Q9Y5K5. purified proteasome/UCH37. inhibition, % (test concentration not listed). hit rate 0.33% among 330,000. AID 588478, 2011;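 active = mean of two replicates above 20%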;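 note: 0% = compound-free wells with enzyme and 100% = wells lacking proteasome; stock transfer was 100 nL into about 20 µL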
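Test system – human UCH37 enzyme supplied as purified proteasome complex · Incubation – 30 min preincubation with enzyme, 25 min cleavage at room temperature · Detection – AMC fluorescence from Ub-AMC cleavage, excitation 355 nm, emission 460 nm · Benchmarks – no-proteasome wells (full inhibition) and compound-free wells (no inhibition)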
FGF22 binding = binders of human FGF22 protein, primary screen, FGF22 synaptogenesis inhibitor project, biophysical, thermal shift, single point; hit rate 1.5% among 340,000; recombinant FGF22 thermal shift, SYPRO orange fluorescence; percent of sucrose octasulfate shift, DMSO zero; calls only at 9.99 µM; Fibroblast growth factor 22 (Homo sapiens), Q9HCT0;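 active = melting point raised past a set limit in the mean and every replicate; three in four hits are not shown here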
Beta2AR agonist = beta2AR agonists driving receptor internalization, primary screen, cell-based, FAP fluorogen, flow cytometry; Beta-2 adrenergic receptor (Homo sapiens), P07550; Am2.2-beta2AR cells; reference of the scale not given here; response, % (test concentration not listed); hit rate 0.43% among 340,000; AID 504454, 2011;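 active = response above a set limit, near 3 SD of response in nonfluorescent compounds, cut at about 42% in these data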;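 note: stock transfer was 100 nL into about 11 µL; a reference agonist was the positive control; negative values mostly stem from fluorescent compounds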
Target sequence (P07550 whole entry, looked up): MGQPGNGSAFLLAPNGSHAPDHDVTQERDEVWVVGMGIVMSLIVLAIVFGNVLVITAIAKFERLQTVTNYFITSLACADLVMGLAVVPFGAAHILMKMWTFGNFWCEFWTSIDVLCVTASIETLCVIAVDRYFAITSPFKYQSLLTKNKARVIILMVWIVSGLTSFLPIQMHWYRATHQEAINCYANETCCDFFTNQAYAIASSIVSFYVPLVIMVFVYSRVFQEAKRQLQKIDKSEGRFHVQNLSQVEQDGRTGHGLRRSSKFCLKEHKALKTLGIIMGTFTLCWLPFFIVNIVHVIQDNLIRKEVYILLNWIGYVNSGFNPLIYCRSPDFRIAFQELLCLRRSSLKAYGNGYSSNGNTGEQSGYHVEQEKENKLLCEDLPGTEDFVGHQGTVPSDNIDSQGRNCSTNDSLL
Ecoli rRNA inh = reduced GFP signal of wild-type E. coli, primary screen, bacterial rRNA inhibitor project, GFP/RFP fluorescence, OD600, single point. E. coli WT GFP vs humanized-ribosome RFP mutants, 24 h; hits give low values; DMSO median 0, no signal -100. GFP signal change (wild-type ribosome), % (test concentration not listed). hit rate 1.6% among 350,000. AID 720706, 2013;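 active = significant combined selectivity score with lowered wild-type GFP, culture density cut under 30%, mutant RFP and density less affected; inactive = any of these conditions unmet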; note: one replicate is shown; some compounds called inactive have numbers as strong as hits
HNF4A DNA FP = change in binding of human HNF4A to DNA, primary screen, biochemical, fluorescence polarization, FITC-DNA; Hepatocyte nuclear factor 4-alpha (Homo sapiens), P41235; 1 h; activity change, % at 10 µM; hit rate 0.3% among 360,000; in the data active = activity change above about 30%, passing the limit was not always enough;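 note: controls were the assay level and a saturating level of protein; the project sought stronger binding though the title names inhibitors; some compounds called inactive have numbers as strong as hits; positive values seem to mean higher polarization but the record does not say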
Target sequence (P41235 whole entry, looked up): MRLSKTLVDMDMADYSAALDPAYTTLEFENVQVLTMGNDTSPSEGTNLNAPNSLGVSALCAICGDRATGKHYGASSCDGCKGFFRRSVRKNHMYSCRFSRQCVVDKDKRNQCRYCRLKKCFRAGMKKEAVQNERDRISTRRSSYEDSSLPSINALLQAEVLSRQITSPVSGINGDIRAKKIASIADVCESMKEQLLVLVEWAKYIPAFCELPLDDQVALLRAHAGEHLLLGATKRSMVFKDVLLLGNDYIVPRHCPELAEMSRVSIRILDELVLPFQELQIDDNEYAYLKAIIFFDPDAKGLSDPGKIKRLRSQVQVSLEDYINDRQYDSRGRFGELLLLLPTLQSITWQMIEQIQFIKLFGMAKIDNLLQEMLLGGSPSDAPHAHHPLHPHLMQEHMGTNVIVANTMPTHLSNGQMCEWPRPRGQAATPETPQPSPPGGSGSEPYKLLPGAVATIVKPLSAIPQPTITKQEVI
E coli growth = E. coli growth inhibition, primary screen, OD600; Escherichia coli growth, 23 h; hits give low values; OD600 absorbance (no concentration beside the values); hit rate 0.21% among 330,000;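 active = OD600 absorbance below the run mean of sample wells minus 3.6 SD, in any replicate, cut at about 0.56 in these data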;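 note: stock transfer was 300 nL into about 60 µL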
ALR inh = inhibitors of human ALR sulfhydryl oxidase, primary screen, biochemical, H2O2 detection, HRP-luminol luminescence, single point. FAD-linked sulfhydryl oxidase ALR (Homo sapiens), P55789. purified ALR, DTT oxidation. inhibition, % (concentration not given with the values). hit rate 3.8% among 290,000;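 active = mean and each replicate at 75% or more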;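 note: stock transfer was 7.5 nL into about 7.5 µL; 0% = neutral wells and 100% = wells with inactivated enzyme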
Target sequence (P55789 whole entry, looked up): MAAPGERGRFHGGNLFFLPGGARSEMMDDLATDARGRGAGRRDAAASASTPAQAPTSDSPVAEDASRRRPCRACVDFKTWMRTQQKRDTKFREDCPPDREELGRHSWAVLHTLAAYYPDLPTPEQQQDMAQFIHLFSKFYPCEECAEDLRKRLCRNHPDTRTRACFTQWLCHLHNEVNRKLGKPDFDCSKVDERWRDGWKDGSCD
Ecoli rRNA inh OD600 = recorded beside Ecoli rRNA inh, whose call it bears; OD600 change, %; measured here: OD600 growth;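 optical density of the mix in the first replicate; 0 = DMSO median and -100 = no signal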
Ecoli rRNA inh RFP = recorded beside Ecoli rRNA inh, whose call it bears; RFP signal change, %; measured here: RFP humanized mutant strains;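 first replicate; 0 = DMSO median and -100 = no signal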
Active calls of the source: *; i = inactive; nt = no result given; & = joins results of further samples.

SMILES | UCH37 DUB inh | FGF22 binding | Beta2AR agonist | Ecoli rRNA inh | Ecoli rRNA inh OD600 | Ecoli rRNA inh RFP | HNF4A DNA FP | E coli growth | ALR inh
CC(C)=CC(=O)OCC(=O)Nc1cc([N+](=O)[O-])ccc1F | 1.4 | nt | -1 | nt | nt | nt | 2.1 | 0.71 | -3
S=c1[nH]nc(Cc2cccc3ccccc23)o1 | -2.5 | i | 1 | -3 | 1 | 6.5 | 1.6 | 0.69 | 49
C=CCn1c(SCC(=O)N2CCOCC2)nc2scc(-c3ccco3)c2c1=O | 4.2 | nt | -1 | nt | nt | nt | -38 | 0.6 | 69
COc1ccccc1CNC(=O)C1CCCN(S(=O)(=O)c2ccc3c(c2)CC(C)N3C(C)=O)C1 (stereo not drawn) | 2.7 | i | 0 | -14 | -16 | -2.4 | 0.5 | 0.72 | 0
Cc1ccccc1S(=O)(=O)Cc1ccc(C(=O)NCCCN2CCN(C)CC2)o1 | 4.6 | nt | 8 | nt | nt | nt | 7.7 | 0.68 | -7
C=CCNC1=C(Cl)C(=O)c2ccccc2C1=O | 15 | nt | 2 | nt | nt | nt | -0.5 | 0.57 | -58
COc1ccc(C2C(=O)NN=C2C)cc1 (stereo not drawn) | nt | nt | -2 | 6 | 3 | -0.9 | 1.7 | nt | nt
CCOc1ccc2nc(NC(=O)COC)sc2c1 | 2.9 | nt | 2 | nt | nt | nt | -1.2 | 0.64 | nt
CSc1nnc([C@H](C)NC(=O)OC(C)(C)C)o1 | 2.4 | nt | -1 | nt | nt | nt | 0.3 | 0.72 | -1
Cc1ccc(S(=O)(=O)N2CCN(Cc3ccco3)CC2)cc1C | 3.6 | i | 7 | -6 | 2 | 3.8 | 4.2 | 0.71 | -15
C[C@@H]1CN([C@H](C)CO)C(=O)CCCn2cc(nn2)CO[C@H]1CN(C)C(=O)Nc1ccc(-c2cccs2)cc1 | nt | i | nt | 2&-3 | 3&-6 | -0.6&1.8 | -0.3 | nt | nt
O=C1C2C3C=CC(CC3)C2C(=O)N1c1nccs1 (stereo not drawn) | 1.0 | i | -3 | 20 | 18 | -2.1 | -1.9 | 0.68 | 0
O=c1c2c3c(sc2nc2sc(CN4CCOCC4)cn12)CCCC3 | 0.6 | nt | -2 | nt | nt | nt | -1.2 | 0.77 | nt
COc1cccc(-n2nnc3c(=O)n(Cc4cccc(C)c4)cnc32)c1 | 6.1 | i | -8 | -6 | -11 | 5.2 | -3.4 | 0.73 | 6
COc1ccc(-c2nc3n(c(=O)c2C#N)CCCS3)cc1 | -6.3 | nt | -10 | nt | nt | nt | 4.6 | 0.72 | -6
CCN(C(=O)c1ccc2c(=O)n3c(nc2c1)CCCCC3)c1ccccc1C | 2.2 | i | 1 | -12 | -12 | 2.0 | 6.3 | 0.71 | 3
Cc1nc(-c2cc(-c3ccc(Cl)cc3)no2)cs1 | 0.6 | i | -10 | 0 | 8 | -1.3 | -3.8 | 0.68 | -7
Cc1ccc(-c2nn(CCC(=O)O)cc2CCC(=O)O)cc1 | 1.3 | i | 2 | 14 | 12 | -3.3 | 2.1 | 0.72 | -16
Cc1cccc(/C=N/NC(=O)c2ccc(NC(=O)c3ccc(F)cc3)cc2)n1 | nt | i | 2 | -9 | 0 | 0.7 | 0.0 | nt | 3
CC(C)c1nnc(NC(=O)CCC(=O)Nc2ccc(F)cc2)s1 | 3.6 | nt | -2 | 15 | 11 | 0.4 | -0.3 | 0.73 | -13

Filtered by structure, the compounds so far containing a furan ring, fused or not.
SMILES | UCH37 DUB inh | FGF22 binding | Beta2AR agonist | Ecoli rRNA inh | Ecoli rRNA inh OD600 | Ecoli rRNA inh RFP | HNF4A DNA FP | E coli growth | ALR inh
C=CCn1c(SCC(=O)N2CCOCC2)nc2scc(-c3ccco3)c2c1=O | 4.2 | nt | -1 | nt | nt | nt | -38 | 0.6 | 69
Cc1ccccc1S(=O)(=O)Cc1ccc(C(=O)NCCCN2CCN(C)CC2)o1 | 4.6 | nt | 8 | nt | nt | nt | 7.7 | 0.68 | -7
Cc1ccc(S(=O)(=O)N2CCN(Cc3ccco3)CC2)cc1C | 3.6 | i | 7 | -6 | 2 | 3.8 | 4.2 | 0.71 | -15

Additional compounds follow.
SMILES | UCH37 DUB inh | FGF22 binding | Beta2AR agonist | Ecoli rRNA inh | Ecoli rRNA inh OD600 | Ecoli rRNA inh RFP | HNF4A DNA FP | E coli growth | ALR inh
O=C(CSc1nnc(CNC(=O)c2ccccc2)o1)NCC1CCCO1 (stereo not drawn) | 6.3 | i | 7 | 9 | 9 | 3.1 | -1.5 | 0.7 | -2
CCN(CC)S(=O)(=O)c1cccc(C(=O)OCc2cc(=O)n3nc(C)sc3n2)c1 | 1.2 | nt | 10 | nt | nt | nt | 3.3 | 0.68 | -1
CCN1CCN(CCCNC(=O)C(=O)c2c(C)[nH]c3ccccc23)CC1 | 4.6 | nt | -2 | 3 | 0 | -4.6 | -1.8 | 0.7 | -5
CCCCN1CCc2[nH]c(=S)[nH]c(=O)c2C1 | 2.4 | nt | 3 | nt | nt | nt | -1.4 | 0.7 | 3
C[C@H](NC(=O)c1nc[nH]c1C(=O)N[C@H](C)c1ccccc1)C(=O)OCc1ccccc1 | 0.9 | i | 5 | -22 | -37 | -2.5 | 1.9 | nt | 40
O=C(CC1C(=O)NCCN1Cc1ccccc1F)NC1CCCCCC1 (stereo not drawn) | nt | i | 2 | -3 | -4 | -0.2 | -4.1 | nt | -18
COCCn1c(SCC(=O)N2CCCc3ccccc32)nc2c(c1=O)SC(C)C2 (stereo not drawn) | 5.4 | i | nt | -2 | -19 | 1.8 | -1.6 | 0.72 | 73
Cc1nn(CC(=O)N2CCN(C)CC2)c(=O)c2ccccc12 | 3.4 | i | 3 | 6 | 8 | -2.3 | -3.3 | 0.72 | -2
Cc1onc(-c2ccccc2Cl)c1C(=O)N1CCN(S(=O)(=O)c2ccc(F)c(F)c2)CC1 | -1.9 | i | 3 | 3 | -2 | -1.1 | 1.4 | 0.68 | -6
CCC(C(=O)O)P(=O)(c1ccc(Cl)cc1)c1ccc(Cl)cc1 (stereo not drawn) | nt | i | -1 | 9 | 3 | -2.7 | -6.0 | nt | 2
O=C(Nc1ccc(S(=O)(=O)N2CCc3ccccc32)cc1)c1ccc2c(c1)OCO2 | 3.8 | nt | 3 | nt | nt | nt | 9.5 | 0.72 | nt
CCOC(=O)C(Cc1ccc(O)c([N+](=O)[O-])c1)N1C(=O)c2ccccc2C1=O (stereo not drawn) | nt | i | 18 | -25* | -26* | 3.8* | 0.5 | nt | nt
Cc1[nH]c(C)c(S(=O)(=O)NCc2ccc(F)cc2)c1C(=O)N1CCCC1 | 2.4 | i | 2 | 22 | 5 | 1.3 | -5.0 | 0.67 | -9
O=C(Cc1cccs1)NCCS(=O)(=O)N1CCN(c2cccc(Cl)c2)CC1 | 0.1 | i | 3 | -5 | -5 | -0.2 | -3.5 | 0.63 | 1
COc1ccc(Br)c(C(=O)OCC(=O)Nc2cc(C)on2)c1 | nt | i | nt | 4 | 5 | 0.2 | 3.2 | nt | nt
COC(=O)Cc1ccc(NC(=S)NCc2ccccc2Cl)cc1 | 0.7 | i | -1 | -6 | -9 | -4.1 | 0.9 | 0.65 | 1
CSc1ccccc1OCc1cc(C(=O)NCc2cnc(C)cn2)no1 | 4.9 | i | -13 | -11 | -13 | 2.0 | 0.4 | 0.74 | -1
COCCNC(=O)c1cc(-c2ccc(-c3ccccc3)cc2)nc2ccccc12 | -152 | i | 11 | -6 | -5 | -0.1 | 2.3 | 0.7 | 1
Nc1nc(SCC(=O)Nc2cccc(F)c2)n[nH]1 | 3.3 | i | -7 | 2 | 8 | -4.1 | -0.9 | 0.65 | 10
O=C(Nc1ccc(Cl)cc1)Nc1nnc(SCc2ccc(Cl)cc2)s1 | nt | i | 0 | 7 | 8 | -0.2 | -1.1 | nt | 2
O=C1Nc2ccc(Br)cc2/C1=C/C(=O)c1ccc2c(c1)OCO2 | 3.2 | i | 55* | 6 | -12 | -0.7 | 3.3 | 0.6 | nt
CCN(CC)CCCNC(=O)c1cn(CC)c2ccc(S(=O)(=O)N(C)C3CCCCC3)cc2c1=O | 1.5 | i | 8 | 7 | 0 | 3.5 | -2.5 | 0.68 | 0
O=C(O)COc1ccc(/C=C2\SC(=Nc3ccccc3)N(c3ccccc3)C2=O)cc1 | 13 | i | 5 | 5 | 4 | -1.1 | 1.3 | 0.69 | 59
Cn1c(Cn2cnc3ccccc32)nc2ccccc21 | 3.5 | nt | 4 | nt | nt | nt | -5.1 | 0.71 | -11
COc1ccc2[nH]c(C(=O)N(Cc3ccccn3)Cc3ccccn3)cc2c1 | -44 | i | 1 | -6 | -5 | 2.5 | 0.2 | 0.68 | -12
CCN(Cc1ccccc1)C(=O)Cn1cnc2c1c(=O)n(C)c(=O)n2C | 0.1 | nt | -10 | nt | nt | nt | -1.3 | 0.66 | nt
CC(C)OC(=O)CSc1nc(-c2ccc(F)cc2)nc2ccc(F)cc12 | -0.6 | nt | 5 | nt | nt | nt | 1.4 | 0.66 | 1
CC(C)C[C@H]1COc2cc(Br)ccc2S(=O)(=O)N1 | nt | i | nt | -22* | -15* | -5.7* | -1.7 | nt | nt
C=CC[C@@H](CC(=O)NCCO)C(=O)N[C@@H](COC(=O)[C@@H](CC=C)Cc1ccc(F)cc1)Cc1c[nH]c2ccccc12 | 4.8 | i | 4 | -4 | -12 | 15 | 1.6 | nt | 10
CN(CC(=O)Nc1ccccc1Cl)C(=O)c1ccc(COc2ccccc2)cc1 | 3.3 | i | 4 | -10 | -29 | -1.8 | 5.6 | 0.71 | -17
CSc1ccc(C#N)cc1NC(=O)c1ccc(Cl)cc1Cl | 2.4 | nt | -10 | nt | nt | nt | 3.3 | 0.72 | -10
CC(C)CCNc1nnnc2c1sc1nc(N3CCOCC3)c3c(c12)CC(C)(C)SC3 | -2.9 | nt | 5 | nt | nt | nt | -1.0 | 0.7 | -11
COc1ccc(S(=O)(=O)Nc2ccccc2C(=O)NC(C)C)cc1OC | -1.3 | nt | 12 | nt | nt | nt | -1.8 | 0.75 | -9
C=CCN(CC=C)c1cnn(-c2nc3ccccc3[nH]2)c(=O)c1Cl | -1.2 | nt | -17 | 5 | 4 | -0.9 | -1.1 | 0.73 | 0
Cc1cc(NS(=O)(=O)c2ccc(NC(=O)C(c3ccccc3)c3ccccc3)cc2)no1 | 1.3 | nt | 0 | nt | nt | nt | -4.8 | 0.67 | 52
CCOC(=O)Nc1ccc2ncn(C)c(=O)c2c1 | 1.9 | i | -17 | 9 | 9 | -1.1 | 3.3 | 0.69 | -9
Cc1ccc(C)c(NC(=O)CN(C)C(=O)[C@@H](NC(N)=O)C(C)C)c1 | 1.5 | i | -4 | 11 | -3 | -6.5 | -0.1 | 0.61 | 1
Cc1c([N+](=O)[O-])c([N+](=O)[O-])nn1CC(=O)NCc1cccnc1 | 2.2 | nt | 4 | 12 | 18 | 1.1 | -1.8 | 0.7 | -23
CC(NC(=O)C(C)N1C(=O)c2ccccc2C1=O)c1ccccc1 (stereo not drawn) | 0.0 | i | 5 | 9 | 0 | -6.5 | -1.8 | 0.66 | nt

Not all compounds are listed; count on the stated rates, not on these rows.
